High-throughput results (PubChem)
PINK1 expr mod – modulators of PINK1 expression. PINK1 immunofluorescence, high-content cytometry, 24 h. Potency, µM (doses to about 76.6 µM), for inactives: at the highest dose activation (PINK1 increase), hits mostly activators. 0.2% of 410,000 active. AID 624263; active = well fitted activation curve with a large enough effect; inconclusive = small, poorly fitted or top-dose-only effect; inactive = flat fitted curve, though single readings scatter; cell line not stated here;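 further: potency means the concentration at half of the fitted maximal effect; % of control where 0% means no effect; nearly all actives have a fitted effect of over 65% in size; a mitochondrial uncoupler was the plate control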
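Decision-based qHTS: stable cells, 24 h exposure to five compound concentrations, CCCP as control. Fixed cells stained for PINK1 plus nuclear, mitochondrial and cell markers, cytometer read.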
gsp agonist – agonists of gsp mutant (McCune-Albright syndrome) | gsp mutant cells, cAMP HTRF, 30 min; control for the full effect not named in the record | Potency, µM (highest dose often 76.9 µM), for inactives: top-dose activation (cAMP increase), actives largely listed as activators | 0.13% of 340,000 active | AID 624287; active = well fitted activation curve with a large enough effect; inconclusive = small, poorly fitted or top-dose-only effect, or another doubt; inactive = no such curve, though single readings can be large or run the other way; cell line not stated here;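 further: phosphodiesterase inhibitor Ro 20-1724 added with compounds to block cAMP breakdown; potency means the concentration at half of the fitted maximal effect; nearly all actives have a fitted effect of over 60% in size; about a fifth of the inactives were tested at one dose only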
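Cells stably selected in G418 were plated at 2000/well, grown 16-24 hr, then given compounds in DMSO with the PDE inhibitor […] (300 uM solution added) for 30 min at 37C; cAMP was read by HTRF.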
D2 ag – agonists of human D2 dopamine receptor (beta-arrestin) | P14416 | DiscoveRx PathHunter D2 beta-arrestin, luminescence, 90 min; 100% = 57 uM dopamine signal | activation, % (no concentration beside the values) | 0.084% of 360,000 active | AID 624465; in the data active = activation above about 40%; inconclusive = about 15% to 40%; inactive = below about 15%; further: compound concentration not given in the record; the text of the record calls up to 30% inactive
Target sequence (P14416 whole entry, looked up): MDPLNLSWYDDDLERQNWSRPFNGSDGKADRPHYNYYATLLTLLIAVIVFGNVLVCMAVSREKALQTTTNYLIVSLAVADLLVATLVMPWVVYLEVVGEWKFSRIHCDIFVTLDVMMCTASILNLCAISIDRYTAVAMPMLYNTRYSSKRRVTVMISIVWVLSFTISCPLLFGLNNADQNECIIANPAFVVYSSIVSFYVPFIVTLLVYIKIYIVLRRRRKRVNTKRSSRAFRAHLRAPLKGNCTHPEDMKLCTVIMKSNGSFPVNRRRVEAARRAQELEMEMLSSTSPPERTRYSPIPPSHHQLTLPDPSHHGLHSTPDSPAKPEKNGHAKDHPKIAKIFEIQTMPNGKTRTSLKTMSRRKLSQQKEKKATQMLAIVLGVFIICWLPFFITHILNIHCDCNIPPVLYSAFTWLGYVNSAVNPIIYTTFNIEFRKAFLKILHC
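DiscoveRx PathHunter D2 beta-arrestin cells (2,100/well) attached overnight, then compound-stimulated 90 min at 37 C in HBSS/10 mM HEPES/0.1% Tween-20 buffer; beta-galactosidase complementation read by luminescence after 1 h at ambient temperature. Dopamine 57 uM final (EC100) as control.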
gsp antag – antagonists of gsp mutant (McCune-Albright syndrome). gsp-mutant cells, cAMP HTRF, 30 min; control for the full effect not named in the record. Potency, µM (titrated, usually from 76.9 µM), for inactives: top-dose activity change, negative = inhibition, usual class: inhibitors. 0.4% of 340,000 active. AID 624288; active = falling curve of any shape with a large fitted effect; inconclusive = falling curve, mostly with a smaller effect; inactive = flat or rising curve; cell line not stated here;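 further: intracellular cAMP measured with PDE inhibitor Ro 20-1724 present during compound exposure; potency means the concentration at half of the fitted maximal effect; on the % scale 0 is the no-effect control and ±100 the full control effect; nearly all actives have a fitted effect of over 65% in size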
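HTRF cAMP read-out (cAMP-d2 plus anti-cAMP antibody-K in lysis buffer, 30 min RT). Before lysis, cells are exposed to compounds with […] for 30 min at 37C in DPBS containing Ca/Mg, BSA and Tween 20.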
Menin MLL FP FL – inhibitors of human menin-MLL interaction, wild-type MLL peptide; Fluorescence polarization, fluorescein-MLL peptide displacement from menin; AID 1766; FP activity change, % at 61.4 µM; 290,000 tested, under 10 active; inconclusive = falling polarisation curve, or a change in total fluorescence; inactive = total fluorescence flat and polarisation flat or rising; no compound was filed as active; the % refers to the polarisation; negative = inhibition;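 further: % of control where 0% means no effect; inhibitors lower the polarisation; unlabelled MLL peptide was the positive control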
Sfp inh – inhibitors of Bacillus subtilis Sfp phosphopantetheinyl transferase. Q9F4F7. Biochemical Sfp PPTase activity, qHTS. Potency, µM, without a hit: max response, negative = inhibition, most hits filed as inhibitors. 3.5% of 310,000 active; active means well fitted inhibition curve with a large enough effect; inconclusive means small, poorly fitted or top-dose-only effect, or another doubt; inactive means no such curve, though single readings can be large or run the other way;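 further: the enzyme is Sfp with the accession as filed and its product quenches rhodamine fluorescence; potency means the concentration at half of the fitted maximal effect; 0% = enzyme reaction without inhibitor and -100% = no enzyme wells; top concentration of the series not given in the record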
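After 15 min at room temperature with compound, 15 nM Sfp received 5 uM rhodamine-CoA plus 12.5 uM BHQ-2-ybbR (50 mM Hepes pH 7.6, 10 mM MgCl2). Rate came from the fluorescence difference over 30 min, ex 525/em 598 nm.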
ClpP mod – qHTS Assay for Activators of ClpP | ATP-dependent Clp protease proteolytic subunit (Bacillus subtilis (strain 168)), P80244 | purified B. subtilis ClpP, FRET peptide cleavage, 20 min | Potency, µM (top dose mostly 57.5 µM), inactives show at the highest dose activity change, negative = active | 1.9% of 340,000 active | AID 651965, 2013; active = well fitted falling curve with a large enough effect; inconclusive = small, poorly fitted or top-dose-only effect; inactive = no such curve, though single readings can be large or run the other way; further: potency means the concentration at half of the fitted maximal effect; the source files actives as falling curves though it sought activators and does not explain the sign; nearly all actives have a fitted effect of over 65% in size; many hits overshoot -100%
Target sequence (P80244 whole entry, looked up): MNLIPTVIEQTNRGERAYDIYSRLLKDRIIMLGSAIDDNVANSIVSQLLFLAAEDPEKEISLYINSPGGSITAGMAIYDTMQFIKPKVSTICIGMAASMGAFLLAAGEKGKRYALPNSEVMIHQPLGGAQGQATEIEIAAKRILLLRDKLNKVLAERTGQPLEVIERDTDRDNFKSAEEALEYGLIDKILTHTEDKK
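ClpP 10 microg/mL final, pH 8 Tris/KCl buffer with BSA, glycerol, Tween-20; compound pinned in; FRET-FV substrate; RT 20 min; Ex320/Em430; ΔFRET vs ADEP 5.8 microM, DMSO, no enzyme.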
* = called active by the depositor; ? = inconclusive; nt = no result given; & = joins results of further samples; [ ] = dose if it differs, or a comment. An unsorted share of the library. Share with any hit: about 5.1%.

SMILES	PINK1 expr mod	gsp agonist	D2 ag	gsp antag	Menin MLL FP FL	Sfp inh	ClpP mod
CN(CC(=O)NCc1ccccn1)S(=O)(=O)c1ccccc1	-0.2%[38.3 µM]	8%	-2.2	8%	3.0	9%	-0.5%
COCCN(C(=O)CSc1nnc(-c2cccc(C)c2)n1C)c1c(N)n(Cc2ccccc2)c(=O)[nH]c1=O	-1.1%	-47%[15.4 µM]	-0.6	7%	1.0	-1%	nt
CC(C)(C)n1nnnc1C(c1cccc(C#N)c1)N1CCCCCC1 (configuration not stated)	-1.5%	8%	-3.1	-15%	0.5	1%	-0.5%
CCc1nc2c(OCc3ccc(Cl)cc3)cccn2c1N(C)C(=O)c1ccco1	-0.4%	nt	-5.3	nt	nt	nt	-3.0%
CC1(C(=O)NC2CCCC2)CCC(=O)N1CCCn1ccnc1 (configuration not stated)	0.0%	nt	-6.7	nt	nt	nt	-1.4%
Cc1ccc(NC(=O)CNC(=O)c2cccs2)nc1	-0.5%	9%[15.4 µM]	-6.5	11%	nt	nt	-1.4%
O=C(O)CN1C(=O)C(=O)N(Cc2cccc(F)c2)C1=O	0.5%	10%	-2.7	-8%	1.3	0%	nt
Cc1ccc(C(=O)N(Cc2nc3ccccc3c(=O)[nH]2)C2CCCC2)cc1	0.4%	-66%[inhibitor]	-4.4	-15%	-8.5	18%	nt
CC(C)Cc1nnc(NC(=O)CN2C(=O)c3ccccc3C2=O)s1	0.2%	3%[15.4 µM]	-3.1	11%	-3.0	22µM*	nt
CC(=O)Nc1ccc(OCc2cn(CC(=O)c3ccc(O)cc3)nn2)cc1	0.6%	-26%	-24	nt	nt	nt	1.3%
O=C1N(c2ccc(Cl)cc2)C(c2ccc(Cl)cc2)N2CCCN12 (configuration not stated)	-1.1%	-57%[inhibitor]	2.4	1%	-1.1	15%	0.4%
O=C(Nc1ccc(F)cc1)C1CCN(C(=O)NCc2ccccc2)CC1	4.1%	13%[15.4 µM]	-6.2	-9%	?	5%	-0.9%
CCN1CCN(Cc2ccc(NC(=O)c3ccc(C)c(NC(=O)c4ccno4)c3)cc2C(F)(F)F)CC1	0.4%&2.5%	-59%[inhibitor]	0.8&-2.3	14%	2.9	15%	-1.0%&-1.1%
CCc1ccc(C(=O)NN(C(=O)c2ccc(CC)cc2)C(C)(C)C)cc1	3.6%	7%	-2.3	-1%	0.0	1%	1.2%
COc1cccc2c1C(=O)c1c(O)c3c(c(O)c1C2=O)CC(O)(C(C)=NNC(=O)c1ccc(Cl)c(Cl)c1)CC3OC1CC(N)C(O)C(C)O1 (configuration not stated)	-7.2%	19%	7.4	-8%	nt	nt	0.4%
O=C(c1ccc(N2CCCC2=O)cc1)N1CCOCC1	2.4%	22%	1.3	7%	-0.2	22%	0.1%
O=C(Nn1c(SCc2cccc([N+](=O)[O-])c2)nc2ccccc2c1=O)c1ccccc1	-3.3%	31%[15.4 µM]	-3.7	-8%	10	15%	-1.3%
COc1ccc(OCCCN2CCCCCC2)cc1	1.9%	15%	-1.1	1%	7.7	-3%	1.4%
CC(NC(=O)c1ccncc1)c1ccccc1 (configuration not stated)	1.5%	7%	-0.5	-17%	-6.2	3%	-2.2%
Cc1cc(=O)oc2c3c(cc(OCC(=O)Nc4cccnc4)c12)OC(C)(C)CC3	17%	nt	1.1	3%	-1.5	21%	4.7%
O=C1C(=Cc2cccc(Cl)c2)Cc2ccccc21	1.7%	nt	-4.6	nt	nt	nt	-0.1%
COc1ccc(Cl)cc1NC(=O)N1CCN(C2CCCCC2)CC1	1.0%[38.3 µM]	-32%	-0.8	8%	5.7	26%	-0.5%
CS(=O)(=O)c1ccc(Cl)c(NC(=O)CSC(=S)N2CCCC2)c1	2.7%	3%[15.4 µM]	-4.6	5%	nt	nt	-1.3%
Cc1ccc(N(C(C)C(=O)Nc2cc(Cl)ccc2Oc2ccccc2)S(C)(=O)=O)cc1 (configuration not stated)	nt	?	0.5	-9%	-0.4	5%	-0.6%
O=C(NCCCCc1ccccc1)C1CC(c2ccccc2[N+](=O)[O-])=NO1 (configuration not stated)	1.2%	nt	-1.5	-5%	0.2	-3%	1.6%
SMILES	PINK1 expr mod	gsp agonist	D2 ag	gsp antag	Menin MLL FP FL	Sfp inh	ClpP mod
O=C(CCC(=O)N1CCOCC1)c1ccc(F)cc1	1.1%	-4%[15.4 µM]	-2.0	8%	2.0	13%	nt
O=C1OCCN1C(=O)[C@H]1[C@H](c2ccc([N+](=O)[O-])cc2)C(c2cccc(Cl)c2)=NN1c1ccc(Br)cc1	1.7%	nt	-0.3	-2%	-1.8[44.5 µM]	18%	0.5%
CCN(CC(=O)NCc1ccc(Cl)cc1)C(=O)CSc1ccc(Br)cc1	11%	19%	-3.0	40µM*	-0.6	8%	-0.1%
COc1ccc(CNC(=O)CN(c2ccccc2)S(=O)(=O)N(C)C)cc1	0.3%&-0.2%	-13%[15.4 µM]	-4.8	9%	-8.9	-4%	1.0%
Cc1cc(C(=O)COC(=O)CN(C)S(=O)(=O)c2ccc(Cl)cc2)c(C)n1Cc1cccs1	1.4%	-24%	-3.7	5%	-2.4	1%	-3.9%
COCCNc1nc(NCc2ccc(NC(C)=O)cc2)c2sccc2n1	2.5%	nt	68*	nt	nt	nt	-16%
COc1ccccc1NC(=O)CN1CCC(C(=O)c2ccc(F)cc2)CC1	1.0%	-20%	-3.4	-13%	0.2	8%	-1.4%
Cc1c(CN2CCCCC2)c(O)n(CCCO)c(=O)c1C#N	-1.0%	-3%	3.8	1%	?	11%	-2.8%
CCCc1cc(=O)oc2cc(OCC(=O)NCCCN3CCCC3=O)ccc12	-1.4%	?	-0.5	-17%	nt	8%	4.3%
NC(=O)CC(NC(=O)Cc1ccc(Br)cc1)c1ccc(N2CCN(c3ccc(F)cc3)CC2)c([N+](=O)[O-])c1 (configuration not stated)	3.0%	nt	-2.4	-5%	-11	-9%	2.1%
CCCc1cc(=O)n2[nH]c(C)c(-c3ccc(Cl)cc3)c2n1	10.0%	10%	2.8	-10%	-3.5	4%	4.2%
COc1cc(CNC(C)(C)CO)ccc1OCC(=O)NC(C)(C)C	0.9%	19%	1.3	-18%	-0.6	11%	10%
COc1cccc(OCc2cc(/C=N/NC(=O)c3nc(Cl)c(Cl)c(N)c3Cl)ccc2OC)c1	18%	-29%	0.1	6%	4.2	10%	-24%
COc1ccc(OC)c(NC(=O)Nc2nnc(COCCO)s2)c1	-0.5%	nt	2.7	nt	nt	nt	1.0%
Cn1c(SCC(=O)N2CCN(S(=O)(=O)c3ccc(Cl)cc3)CC2)nc2ccccc21	1.9%	0%	-3.8	-13%	0.8	15%	-0.6%
Cc1ccc(C(c2nnnn2Cc2ccccc2)N2CCN(Cc3ccccc3)CC2)cc1 (configuration not stated)	-1.3%	2%	-4.9	-16%	2.7	-1%	0.7%
O=C(OCC(=O)N(C1CCCCC1)C1CCCCC1)c1ccncc1	0.2%	-44%[inhibitor]	-2.1	-10%	0.1	0%	-1.7%
Cc1ccc(OCCCC(=O)N2CCN(S(=O)(=O)c3cccc(F)c3)CC2)cc1	-1.5%	-5%[15.4 µM]	-4.5	-4%	nt	nt	nt
Cc1ccc2cc(CN(CCCN3CCOCC3)C(c3nnnn3Cc3ccco3)C(C)C)c(=O)[nH]c2c1C (configuration not stated)	-3.5%[38.3 µM]	5%	-0.4	7%	nt	nt	?
CC(=O)Nc1ccc(NC(=O)c2cccc(-c3cc4ccccc4oc3=O)c2)cc1	-1.5%	1%[15.4 µM]	-0.5	5%	-2.0	4%	-1.2%
COc1ccc(C2=CSC(/N=C/c3ccc(F)cc3)=NN2)cc1	nt	3%	4.2	-7%	-0.6	28µM*	-0.3%
CC(C)(C)S(=O)N1Cc2cn(Cc3ccccc3)c(=O)cc2[C@H]1CCO (some centres not stated)	-0.8%	nt	-2.2	0%	nt	nt	5.1%
O=C1[C@@H]2[C@@H]3C[C@@H]([C@H]4ON=C(c5ccc(OCc6ccccc6)cc5)[C@@H]34)[C@@H]2C(=O)N1c1ccc2c(c1)OCO2	-1.1%	-27%	1.3	5%	2.8	-1%	-3.2%
CS(=O)(=O)N(CC(=O)NCc1ccc2c(c1)OCO2)c1ccc(Cl)cc1	-1.8%	-6%	-5.1	-2%	-1.2	10%	-0.3%
Cc1ccccc1CN(c1ccc(C(=O)Nc2ccccc2C(=O)N2CCCC2)cc1)S(C)(=O)=O	-1.7%	27%	-1.0	-12%	-1.0	14%	-1.7%
SMILES	PINK1 expr mod	gsp agonist	D2 ag	gsp antag	Menin MLL FP FL	Sfp inh	ClpP mod
CC(C)NC(=O)c1cc(-c2ccc3c(c2)OCO3)on1	7.1%	9%[15.4 µM]	-2.2	4%	-3.4	11%	-1.0%
CCC(=O)Oc1ccc(NC(=O)c2ccc(S(=O)(=O)N3CCCC3)cc2)cc1	1.1%	-48%[inhibitor]	-0.8	nt	nt	nt	-0.4%
CCCn1c(C(C)Nc2nc(-c3ccc(C)cc3)cs2)nc2ccccc21 (configuration not stated)	2.4%	-38%[inhibitor]	-3.9	2%	3.3	-9%	-2.6%
COc1cc(/C=N\NC(=O)c2ccc(Cn3cc(Br)c([N+](=O)[O-])n3)o2)cc(OC)c1O	-1.6%	-50%[inhibitor]	-2.4	7%	nt	-18%	-1.5%
COC(=O)c1c(-c2ccc(SC)cc2)sc2ccc(OC)cc12	0.7%	nt	-1.7	-13%	nt	nt	3.5%
C=CCn1c(SCC(=O)c2ccc(Br)cc2)nnc1C(C)NC(=O)Cc1ccc(OC)cc1 (configuration not stated)	5.4%[38.3 µM]	-7%	-1.7	4%	3.4	18%	1.2%
O=C(CCSc1nc(-c2ccco2)cc(C(F)(F)F)n1)NCc1ccccn1	1.6%	-1%	-1.9	1%	4.3	-1%	-2.2%
CCN(C(=S)Nc1cccc2ccccc12)c1ccccc1	0.1%	28%	-6.7	nt	nt	nt	4.0%
O=C(CSc1ccccc1)Nc1ccccc1C(=O)O	2.3%	25%	1.4	?	-6.7	5%	3.9%
CCOC(=O)Cc1csc(NC(=O)COc2ccccc2)n1	9.9%[38.3 µM]	?	-1.1	6%	1.1	19%	0.8%
Cc1cc(S(=O)(=O)NC2CCCCC2)c(C)s1	3.7%	25%	1.3	-13%	-0.1	12%	-2.2%
S=c1[nH]nc(COc2ccccc2)n1/N=C/c1cccc(Cl)c1Cl	4.7%	-25%	1.8	-10%	2.5	-2%	-2.0%
O=C(N/N=C/c1ccc(N2CCOCC2)cc1)c1ccncc1	-1.7%	-2%	0.0	-1%	nt	nt	0.5%
